RE007 growth inh – qHTS Assay for Inhibitors of the HIV-1 protein Vpr | 360,000 tested, 0.21% active | S. pombe RE007 Vpr strain, BacTiter-Glo ATP luminescence, 24 h; control for the full effect not named in the record | Potency, µM (doses to about 92.2 µM), for the others: at the top dose activity change, negative = less growth; active = well fitted falling curve with a large enough effect; inconclusive = small, poorly fitted or top-dose-only effect; inactive = no such curve, though single readings can be large or run the other way;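 note: % is set by controls: 0 for no effect and ±100 for the full control effect; nearly all actives have a fitted effect of over 50% in size; the assay follows cell death caused by Vpr and the record does not say whether a fall means rescue or toxicity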
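Fission yeast RE007 carrying one integrated HIV-1 vpr copy, seeded at OD 0.01 in PMG+AL medium with 23 nL pinned compound. Grown 24 h at 30 degrees; viability read by BacTiter-Glo luminescence after 5 min.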
Lassa entry inh – qHTS for Inhibitors of binding or entry into cells for Lassa Virus; Lassa virus pseudotype entry inhibition, cell reporter; control for the full effect not named in the record; AID 540256, 2011; Potency, µM (doses to about 37.9 µM), for inactives: at the top dose activity change, negative = inhibition, actives largely listed as inhibitors; 300,000 tested, 1.2% active; active means well fitted inhibition curve with a large enough effect; inconclusive means small, poorly fitted or top-dose-only effect, or effect the other way; inactive means flat fitted curve, though single readings scatter; tested in HEK293 cells; note: % is set by controls: 0 for no effect and ±100 for the full control effect; nearly all actives have a fitted effect of over 50% in size; luciferase read-out
Cruzain inh Det – qHTS Assay for Promiscuous and Specific Inhibitors of Cruzain (with detergent) | purified cruzain, Z-FR-AMC fluorescence, 0.01% Triton | 200,000 tested, 0.43% active | Cruzipain (Trypanosoma cruzi), P25779 | Potency, µM, inactives show max response, negative = inhibition, usual class: inhibitors;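 note: plate controls were neutral wells for no effect and buffer without enzyme for full effect; nearly all actives have a fitted effect of over 40% in size; top concentration of the series not given in the record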
Target sequence (P25779 123-467 limits assumed): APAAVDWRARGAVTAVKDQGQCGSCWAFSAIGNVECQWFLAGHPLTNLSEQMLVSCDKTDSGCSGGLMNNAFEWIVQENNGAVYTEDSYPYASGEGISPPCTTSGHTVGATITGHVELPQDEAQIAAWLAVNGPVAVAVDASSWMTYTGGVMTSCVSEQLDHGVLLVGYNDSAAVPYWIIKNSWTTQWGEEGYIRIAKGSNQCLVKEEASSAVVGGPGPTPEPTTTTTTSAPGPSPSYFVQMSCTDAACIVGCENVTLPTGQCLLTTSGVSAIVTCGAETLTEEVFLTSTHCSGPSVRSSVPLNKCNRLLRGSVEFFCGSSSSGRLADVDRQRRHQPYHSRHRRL
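Sodium acetate buffer (100 mM, pH 5.5) containing 5 mM DTT and 0.01% Triton X-100 hosted 1.5 nM cruzain and test compound for 15 min at room temperature. Cleavage of 2 uM Z-FR-AMC was then tracked by fluorescence.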
StopGo reporter – High Throughput Screening for Foot and Mouth Disease Virus Antivirals. human cells with a luciferase reporter of 2A StopGo recoding; control for the full effect not named in the record. Potency, µM (highest dose often 57.9 µM), for the others: top-dose signal change, negative = less light. 410,000 tested, 1.2% active; active = well fitted falling curve with a large enough effect; inconclusive = small, poorly fitted or top-dose-only effect; inactive = no such curve, though single readings can be large or run the other way; tested in HEK293T cells; note: % is set by controls: 0 for no effect and ±100 for the full control effect; nearly all actives have a fitted effect of over 45% in size; luciferase light after 4 h
SARS PLpro yeast – qHTS of Yeast-based Assay for SARS-CoV PLP; 330,000 tested, 0.19% active; AID 485353, 2010; S. cerevisiae expressing SARS-CoV PLpro, growth rescue; control for the full effect not named in the record; Potency, µM (highest dose often 32.9 µM), inactives show top-dose activity, positive = growth rescue; active means well fitted rising curve with a large enough effect; inconclusive means small, poorly fitted or top-dose-only effect; inactive means no such curve, though single readings can be large or run the other way; note: 0% is about no effect; nearly all actives have a fitted effect of over 55% in size; growth read by luminescence after 48 h
NS1 inh – qHTS Assay for Inhibitors of Influenza NS1 Protein Function; S. cerevisiae slowed by influenza A NS1, growth recovery by OD600; Potency, µM (top dose mostly 46.1 µM), without a hit: at the highest dose activity, positive = more growth; 270,000 tested, 0.4% active; active means well fitted rising curve with a large enough effect; inconclusive means small, poorly fitted or top-dose-only effect; inactive means no such curve, though single readings can be large or run the other way; note: nearly all actives have a fitted effect of over 50% in size
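In this qHTS, NS1 from influenza A is expressed in budding yeast, where it slows growth. Cells are switched from glucose to 2% galactose medium (pH 6.0, -URA), treated with compound, and growth recovery is read at OD600.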
Cruzain noTriton – qHTS Assay for Promiscuous and Specific Inhibitors of Cruzain (without detergent); Cruzipain (Trypanosoma cruzi), P25779; purified cruzain, Z-FR-AMC fluorescence, no detergent; Potency, µM, without a hit: max response, negative = inhibition, hits mostly inhibitors; 200,000 tested, 2.3% active;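 note: plate controls were enzyme without inhibitor for no effect and buffer without enzyme for full effect; nearly all actives have a fitted effect of over 40% in size; top concentration of the series not given in the record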
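Detergent-free condition (0.00005% Triton X-100) in acetate buffer pH 5.5 with DTT. 1.5 nM enzyme and compound were pre-mixed 15 min, then 2 uM Z-FR-AMC substrate added; reaction progress from fluorescence change between first and third reads (60 s).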
MARV entry inh – qHTS for inhibitors of binding or entry into cells for Marburg Virus; Marburg virus pseudotyped entry inhibition, cell reporter; control for the full effect not named in the record; about a third of the inactives were read at about 46 µM; Potency, µM (series often up to 37.8 µM), for inactives: top-dose activity change, negative = inhibition, usual class: inhibitors; 300,000 tested, 1.8% active; AID 540276, 2011; active = well fitted inhibition curve with a large enough effect; inconclusive = small, poorly fitted or top-dose-only effect, or effect the other way; inactive = flat fitted curve, though single readings scatter; tested in HEK293 cells; about a fifth of its hits are not listed in these tables; note: % is set by controls: 0 for no effect and ±100 for the full control effect; luciferase read-out
The depositor's hits bear a star; ? = inconclusive; / = not tested or not shown; & = joins results of further samples; [ ] = dose if it differs, or a comment. Unless noted, calls come from the whole dose curve; as a rule, active = well fitted curve in the direction sought with a large enough effect; inconclusive = small, poorly fitted or top-dose-only effect, or another doubt; inactive = no such curve, though single readings can be large; an effect the other way counts as inactive or inconclusive. Potency is the fitted concentration of half-maximal effect.

SMILES | RE007 growth inh | Lassa entry inh | Cruzain inh Det | StopGo reporter | SARS PLpro yeast | NS1 inh | Cruzain noTriton | MARV entry inh
Cc1ccc(-c2cc(NC(=O)COc3c(C)cc(C)cc3C)on2)cc1 | / | 25%[46.1 µM] | -9.5% | -20% | / | / | ? | 22%[46.1 µM]
O=C(Nc1ccc(N2CCCCC2)c(S(=O)(=O)Nc2ccccc2Cl)c1)c1cccnc1 | -4% | -23% | / | -6% | -11% | / | / | ?
O=C(C[n+]1ccc(/C=N/O)cc1)N1CCCCC1 | -18% | 9% | / | 8% | 0% | 0% | / | 4%&4%
CCN(CC)c1ccc(C(=O)NC(=S)Nc2cc(S(=O)(=O)N3CCOCC3)ccc2-n2cncn2)cc1 | -6% | -8% | -3.7% | 2% | 8% | -1% | -6% | 8%
CCOc1ccc(C(CC(=O)O)NC(=O)CCCOc2ccc(Cl)cc2C)cc1 (stereo not drawn) | -13% | -15% | / | -17% | 0% | 3% | / | 18%[46.1 µM]
Clc1ccc(CCNc2nc3cc(Cl)c(Cl)cc3n3cnnc23)cc1 | / | 2%[46.1 µM] | 1.2% | -10% | / | / | -8% | 2%[46.1 µM]
CCCCCn1c(=O)c(C(=O)Nc2cccc(C)c2)c(O)c2ccccc21 | -6% | / | / | 2% | 0% | -2% | / | /
COCCNC(=O)c1cc(C(=O)CC(C)C)c[nH]1 | -27% | 2% | / | -4% | 0% | 7% | / | 29%[46.1 µM]
COc1ccc(NC(=O)C2CCCN(C(=O)Nc3ccc(OC)cc3)C2)cc1 (stereo not drawn) | -17% | 17%[46.1 µM] | / | 2% | -2% | 4% | / | -1%[46.1 µM]
COc1ccc(C(=O)Nn2c(SCC(=O)NCC3CCCO3)nc3ccccc3c2=O)cc1 (stereo not drawn) | ? | 7.3µM* | 0.5% | 11µM* | -7% | -5% | 4% | ?
COc1cccc(Cc2nc3ccccc3nc2SCC(=O)NCCc2ccccc2)c1 | / | ? | -4.0% | ? | / | / | 1% | /
Brc1ccc(C2C3=C(Nc4ncnn42)c2ccccc2OC3c2ccncc2)cc1 (stereo not drawn) | 9% | ? | -1.5% | ? | 3% | 7% | -5% | ?
Cc1nn(-c2ccccc2)c(C)c1C(=O)OCC(O)=C(C#N)c1nc2ccccc2[nH]1 | -7% | 14%[46.1 µM] | / | 15% | / | / | / | 2%[46.1 µM]
COc1ccc(NC(=O)N2CCN(S(C)(=O)=O)CC2)cc1OC | 11% | 0% | 4.7% | -24% | -2% | 0% | -5% | 16%
COc1ccc(CCC(=O)NNC(=O)Nc2ccc(OC)c(OC)c2)cc1 | 0% | / | / | -7% | -2% | -9% | / | /
Cn1nc(-c2ccc(OCC(=O)NCC3CCCO3)cc2)c2ccccc2c1=O (stereo not drawn) | 16% | -12% | 0.1% | ? | 0% | -13% | 7% | ?
CC(Sc1nnc(COc2ccccc2)n1-c1ccccc1)C(=O)O (stereo not drawn) | 9% | ? | / | 3% | -2% | 20% | / | 22%[46.1 µM]
O=C(Nc1cccc(Cl)c1N1CCCC1)c1ccc(Br)o1 | -13% | -11% | -5.9% | ? | -6% | -9% | -4% | -7%
O=C(CSc1nnc(-c2cccs2)n1CC1CCCO1)c1cc2ccccc2o1 (stereo not drawn) | -17% | 14% | -7.2% | -5% | -8% | 0% | ? | 18%
COc1ccc(CC2(CO)CCN(Cc3c(C)nn(C(C)C)c3C)CC2)cc1 | 1% | -4% | / | -27% | -1% | -1% | / | -2%[46.1 µM]
O=C(CCCn1c(=O)c2cccn2c2cccnc21)NCc1ccc(F)cc1 | / | 17%[46.1 µM] | -1.2% | -3% | / | / | 3% | /
Cc1ccc2oc(=O)c3cc(C(=O)NCc4ccco4)sc3c2c1 | 2% | / | -5.0% | -10% | -4% | ? | -26% | -4%
CCOCC(=O)Nc1ccc2c(c1)N(S(=O)(=O)c1cccs1)CCC2 | -2% | ? | / | 16% | 0% | / | / | 3%
CC(O)CN(CCC(N)=O)CCC(N)=O (stereo not drawn) | -5% | -9% | 5.1% | -15% | 0% | 21% | 12% | ?
CCCNC(=O)Cn1nc(C(F)(F)F)c2c1CCC2 | 10% | 15%[46.1 µM] | / | 1% | 0% | -2% | / | 8%[46.1 µM]

Shown with tabs: entries from further up.
SMILES	RE007 growth inh	Lassa entry inh	Cruzain inh Det	StopGo reporter	SARS PLpro yeast	NS1 inh	Cruzain noTriton	MARV entry inh
CCOc1ccc(C(CC(=O)O)NC(=O)CCCOc2ccc(Cl)cc2C)cc1 (stereo not drawn)	-13%	-15%	/	-17%	0%	3%	/	18%[46.1 µM]
Clc1ccc(CCNc2nc3cc(Cl)c(Cl)cc3n3cnnc23)cc1	/	2%[46.1 µM]	1.2%	-10%	/	/	-8%	2%[46.1 µM]
CCCCCn1c(=O)c(C(=O)Nc2cccc(C)c2)c(O)c2ccccc21	-6%	/	/	2%	0%	-2%	/	/
COCCNC(=O)c1cc(C(=O)CC(C)C)c[nH]1	-27%	2%	/	-4%	0%	7%	/	29%[46.1 µM]
COc1ccc(NC(=O)C2CCCN(C(=O)Nc3ccc(OC)cc3)C2)cc1 (stereo not drawn)	-17%	17%[46.1 µM]	/	2%	-2%	4%	/	-1%[46.1 µM]

(list continues)
SMILES | RE007 growth inh | Lassa entry inh | Cruzain inh Det | StopGo reporter | SARS PLpro yeast | NS1 inh | Cruzain noTriton | MARV entry inh
O=C(NCc1ccco1)c1cnn2c1NC(c1ccccc1)CC2C(F)(F)F (stereo not drawn) | -3% | -28% | -0.4% | -8% | -4% | -13% | 5% | 0%
CCC1COCCS(=O)(=O)N1Cc1ccccc1C (stereo not drawn) | -9% | / | / | -5% | -4% | -1% | / | /
CC(=O)Nc1ccc(C(=S)NCC2(N(C)C)CCCCC2)cc1 | 1% | / | / | 26% | 0% | / | / | ?
CCN(Cc1ccccc1)C(=O)Cn1c(=O)n(-c2cccc(C)c2)c(=O)c2c1c1cc(OC)ccc1n2C | / | ? | -1.2% | ? | / | / | -1% | -3%[46.1 µM]
CCOc1ccc2nc(NC(=O)Nc3cccs3)sc2c1 | -8% | ? | -11% | 19% | -7% | -47% | -4% | -30%
Cc1ccccc1NC(=O)CCNC(=O)Cn1ccc2ccccc2c1=O | / | 12%[46.1 µM] | -0.4% | -12% | / | / | -6% | 20%[46.1 µM]
O=C(Oc1nsnc1N1CCOCC1)N1CCCC1 | -20% | 1% | / | -8% | / | / | / | 6%
CCOc1cc(S(=O)(=O)Nc2ccc(CC)cc2)ccc1Cl | ? | -2% | -11% | 1% | -71% | -36% | -1% | -13%
CC(C)(C)S(=O)(=O)/C(C#N)=N/Nc1ccc(C#N)cc1 | -3% | -17% | / | -12% | -4% | 0% | / | ?
COc1ccc(OC)c(NC(=O)C2CCC(CNc3c(N4CCOCC4)c(=O)c3=O)CC2)c1 (stereo not drawn) | -8% | -5% | / | -12% | 2% | 3% | / | 0%[46.1 µM]
Cc1nn(-c2ccccc2)c(C)c1C(=O)OCC(=O)N1CCN(S(=O)(=O)c2ccccc2)CC1 | -12% | -4% | 2.1% | -22% | 3% | -37% | ? | 8%
COC(=O)CSc1ccc(C#N)c(SCC(=O)OC)c1 | -18% | -1% | -7.1% | -11% | -5% | -4% | -22% | 21%
CCOC(=O)c1ccccc1NC(=O)Cn1c(=O)n(Cc2ccccc2)c(=O)c2c(C)c(C)sc21 | -7% | 4%[46.1 µM] | -2.5%&-3.7% | -10%&-12% | 17% | 25% | ? | 0%[46.1 µM]
CCCC(=O)Nc1nnc(Cc2ccccc2)s1 | 3% | -8% | 3.5% | 25% | -5% | -10% | -1% | -11%
O=C(c1ccccc1)c1n[nH]c(-c2ccccc2)cc1=O | 5% | -11% | / | 14% | -1% | / | / | -1%[46.1 µM]
COc1ccc(NC(=O)CSc2nnc(Cc3cccn3C)n2CCc2ccccc2)c(OC)c1 | -3% | 27%[14.3 µM] | -7.0% | ? | -5% | ? | ? | ?
CC(=O)N1CCC2(CC1)OC(=O)C(C)=C2C(=O)NCc1cccc(Cl)c1 | / | 19%[46.1 µM] | 1.5% | -1% | / | / | -7% | /
CC1CCCCN1CCCNC(=O)c1ccc2c(c1)sc1nc(-c3ccc(F)cc3)cn12 (stereo not drawn) | / | 25%[46.1 µM] | -2.2% | 0% | / | / | 2% | /
Cc1ccc(-n2nc(-c3ccco3)cc2C(=O)NCc2cccnc2)cc1 | -6% | ? | -6.7% | -12% | -10% | -11% | -12% | ?
Clc1ccc(CNc2ccccn2)cc1 | 4% | 5%[46.1 µM] | / | 8% | -1% | 0% | / | ?
O=C(CSc1nnc(CNC(=O)c2c(F)cccc2F)o1)NCc1ccccc1 | 6% | -2% | / | 1% | -7% | 2% | / | 2%
CCC(C)(C)n1nnnc1C(c1ccc(OC)c(OC)c1)N1CCN(c2cccc(OC)c2)CC1 (stereo not drawn) | 6% | -28% | -4.8% | -8% | 8% | -2% | ? | ?
Cc1ccc(S(=O)(=O)NCCC(c2ccccc2)c2ccco2)cc1 (stereo not drawn) | / | ? | -2.8% | 16% | 26% | 3% | -3% | ?
CCCNC(=S)N1CC2(C)CN(C(=O)C(=O)OCC)CC(C)(C1)C2=O | 2% | / | / | -12% | 1% | 4% | / | /
NC(=O)C1(N2CCCCC2)CCN(C(=O)Nc2ccc(F)cc2F)CC1 | / | 6%[46.1 µM] | -1.0% | -11% | / | / | ? | 23%[46.1 µM]
COc1ccc(OCc2cc(C(=O)N(C)Cc3nnc(C)o3)no2)c(Cl)c1 | 8% | / | / | 19% | -8% | -6% | / | /
C=CCOc1cccc(C(=O)NC(c2ccccc2)C(C)C)c1 (stereo not drawn) | 3% | -17%[46.1 µM] | / | -9% | 1% | -7% | / | -25%[46.1 µM]
Cc1ccc(Cn2nnc3c(=O)n(Cc4ccccc4C)cnc32)cc1 | 7% | / | 3.8% | -12% | 2% | ? | -4% | /
